# From PubChem BioAssay
# KAT2A inh: qHTS Assay for Inhibitors of GCN5L2. Histone acetyltransferase KAT2A (Homo sapiens), Q92830. GCN5L2 HAT assay, ThioGlo1 CoA-SH fluorescence. Potency, µM (series often up to 58.9 µM), inactives show at the top dose activity change, negative = inhibition, hits mostly inhibitors. 390,000 tested, 0.21% active
# Target sequence (Q92830 whole entry, looked up): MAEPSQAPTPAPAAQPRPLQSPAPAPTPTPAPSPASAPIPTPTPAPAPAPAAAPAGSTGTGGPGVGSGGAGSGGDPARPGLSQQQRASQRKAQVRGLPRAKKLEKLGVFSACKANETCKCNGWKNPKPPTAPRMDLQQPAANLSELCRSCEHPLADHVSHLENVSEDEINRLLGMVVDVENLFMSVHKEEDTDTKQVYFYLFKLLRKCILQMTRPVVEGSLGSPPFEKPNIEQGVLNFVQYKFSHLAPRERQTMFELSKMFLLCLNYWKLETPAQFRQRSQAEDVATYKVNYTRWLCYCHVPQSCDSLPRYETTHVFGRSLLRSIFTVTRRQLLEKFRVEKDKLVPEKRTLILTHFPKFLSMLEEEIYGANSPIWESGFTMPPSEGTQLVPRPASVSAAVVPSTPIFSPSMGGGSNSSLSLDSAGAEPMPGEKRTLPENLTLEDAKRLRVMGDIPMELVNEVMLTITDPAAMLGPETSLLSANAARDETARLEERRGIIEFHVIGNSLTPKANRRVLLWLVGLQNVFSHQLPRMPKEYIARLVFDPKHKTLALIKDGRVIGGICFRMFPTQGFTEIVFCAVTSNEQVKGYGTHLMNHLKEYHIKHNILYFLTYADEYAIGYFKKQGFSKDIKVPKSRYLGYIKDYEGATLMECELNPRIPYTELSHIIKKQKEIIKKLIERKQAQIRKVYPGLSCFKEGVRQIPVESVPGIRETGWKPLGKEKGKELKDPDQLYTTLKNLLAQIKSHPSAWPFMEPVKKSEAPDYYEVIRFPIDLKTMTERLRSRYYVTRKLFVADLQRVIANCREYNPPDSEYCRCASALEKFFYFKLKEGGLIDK
#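 Compounds, pin-transferred from DMSO stocks, meet 20nM GCN5L2 for 15 min before the reaction begins with H3(1-25) peptide (75uM) and acetyl-CoA (70uM). Thiol-reactive ThioGlo1 reports CoA release over 20 min at room temperature.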
# DT40 TDP1 CPT: qHTS for Inhibitors of human tyrosyl-DNA phosphodiesterase 1 (TDP1): qHTS in cells in presence of CPT. chicken DT40 Tdp1-/-;hTDP1 cells + 20 nM CPT, ATP luminescence, 48 h. Potency, µM (series often up to 46.2 µM), for the others: top-dose activity change, negative = growth inhibition, usual class: inhibitors. 420,000 tested, 12% active. AID 686979, 2013; further: nearly all actives have a fitted effect of over 55% in size
#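 Chicken DT40 Tdp1-/- cells complemented with human TDP1, 400 cells/well, exposed to compounds plus 20 nM camptothecin for at least 48 h at 37 C; viability read as ATP content by CellTiter-Glo luminescence.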
# Active calls of the source: *; ? = inconclusive; . = not tested or not shown; & = joins results of further samples. The call rests on the fitted dose curve; in most records, active means well fitted curve in the direction sought with a large enough effect; inconclusive means small, poorly fitted or top-dose-only effect, or another doubt; inactive means no such curve, though single readings can be large; an effect the other way counts as inactive or inconclusive. On the % scale 0 is the no-effect control and ±100 the full control effect; potency means the concentration at half of the fitted maximal effect. Some of the compounds tested; most or all hits stand in other tables.
# Every second line gives: KAT2A inh	DT40 TDP1 CPT
CCOC(=O)C1CCN(c2cc(=O)n(C3CCCCC3)c(=O)[nH]2)CC1
→ -5%	8%
O=C(NC1CCCCCC1)C1c2ccccc2C(=O)N1CCCN1CCOCC1 (stereo unspecified)
→ 0%	-23%
Cc1noc2ncnc(Oc3ccccc3Cl)c12
→ -1%	-6%
COc1ccc(C(=O)NC2=NCCS2)cc1S(=O)(=O)N1CCCCC1C (stereo unspecified)
→ -5%	-2%
CCOC(=O)N1CCN(c2cc(=O)n(-c3ccccc3C)c(=O)[nH]2)CC1
→ -1%	-6%
O=C(O)C1CC=CCC1C(=O)NCCCN1CCCC1=O (stereo unspecified)
→ -20%	-14%
CCCCc1nn2c(=O)cc(COC(=O)c3ccc(NC(=O)c4cccc(OC)c4)cc3)nc2s1
→ 3%	5%
Cc1ccc2nsnc2c1S(=O)(=O)N(CCO)Cc1cc2cc3c(cc2[nH]c1=O)OCCO3
→ -8%	-21%
CCCC(=O)Nc1cc(OCC)c(NC(=O)NC2CCCCC2)cc1OCC
→ -3%	-6%
O/N=C(\c1ccccc1)C(O)c1ccccc1 (stereo unspecified)
→ -1%	-6%
O=C(CCN1C(=O)[C@@H]2Cc3ccccc3CN2C1=O)N[C@H](Cc1ccccc1)C(=O)O
→ -6%	10%
COc1cc(/C=N/N(CCO)C2=NS(=O)(=O)c3ccccc32)cc(OC)c1OC
→ -15%	8%
O=C(NC1CCCCCC1)C(Cc1ccccc1)n1cccc1 (stereo unspecified)
→ 3%	?
CC(C)n1c(=O)[nH]c(=O)n1C(C)C
→ .	2%
Cn1c(=O)c2c(nc(N3CCCCC3)n2C)n(C)c1=O
→ -4%	-2%

# Every second line gives: KAT2A inh	DT40 TDP1 CPT
O=C(Nc1ccccc1F)C1CC1c1ccccc1 (stereo unspecified)
→ -2%	3%
Cc1ccccc1C1NC(c2ccccc2C)C(C)C(=O)C1C (stereo unspecified)
→ -8%	0%
CC(C)[C@H](NS(=O)(=O)c1ccc2c(c1)OCCO2)C(=O)OCC(=O)Nc1ccccc1
→ -5%	-17%
Cc1ccc(SCCN)cc1C
→ 1%	-2%
COc1ccc(-c2cc(C(=O)N3CC(C)CC(C)C3)c3ccccc3n2)cc1 (stereo unspecified)
→ -24%	?
Cc1cccc(NC(=S)NCCC(C)C)c1
→ -3%	-22%
O=C(Nc1cccc(-c2nn[nH]n2)c1)c1cccs1
→ 3%	-2%
Cc1ccc(Oc2ccc(NC(=O)CCC(=O)OCC(=O)c3cccs3)cc2)cc1C
→ -14%	-2%
Cc1cc(NC(=O)CCC(=O)N(c2ccc(F)cc2)C(C(=O)NC2CCCC2)c2ccccc2)no1 (stereo unspecified)
→ -4%	-1%
COc1ccc(-n2ncc3c(NCc4ccc5c(c4)OCO5)ncnc32)cc1
→ 2%	-7%
CCOc1ccccc1-n1c(N)c(C(=O)OC)c2nc3ccccc3nc21
→ -4%	-4%
Cc1c(NC(=O)CN2C(=O)NC(C)(c3ccc4c(c3)OCCO4)C2=O)c(=O)n(-c2ccccc2)n1C (stereo unspecified)
→ 1%	-14%
COC(=O)c1ccccc1N(C)C(=O)C12CCC(C)(C(=O)O1)C2(C)C (stereo unspecified)
→ 1%	9%
CC1(C)CC(=O)C2=C(C1)Nc1cc(Cl)ccc1S2
→ -14%	?
COc1ccc(C(=O)N2CCC(n3nccc3NC(=O)C3CC3)CC2)c(OC)c1OC
→ -2%	3%

# Every second line gives: KAT2A inh	DT40 TDP1 CPT
COc1ccc(N2CCN(C(=O)CNS(=O)(=O)c3ccc(C)c(C)c3)CC2)cc1
→ -6%	0%
COc1ccc(OC)c(NC(=O)C(=O)NCCC2=CCCCC2)c1
→ -9%	?
COc1ccc(N2CCN(C(=O)C3(S(=O)(=O)c4ccc(C)cc4)CC3)CC2)cc1
→ 1%	?
O=C(Nc1ccc(S(=O)(=O)N2CCCC2)cc1)c1ccc2c(=O)n3c(nc2c1)CCCCC3
→ -6%	?
Cn1ncc(N=Cc2ccccc2)c1C(=O)Nc1cccc(Cl)c1
→ -20%	?
C=CCn1c(=O)c(C#N)cc2c(=O)n3ccccc3nc21
→ 2%	0%
CN1CCN(C(=O)c2ccc(CN(c3ccccc3)S(=O)(=O)c3ccccc3)cc2)CC1
→ -3%	?
CSCCC(NC(=O)c1ccc(Cl)cc1Cl)C(=O)OC1CCCCC1=O (stereo unspecified)
→ -3%	-3%
CCCc1nnc(SCC(=O)N2CCCC(C)C2)n1CCOC (stereo unspecified)
→ -10%	3%
O=C(NC(Cc1ccccc1)C(=O)O)/C(=C/c1cccc([N+](=O)[O-])c1)NC(=O)c1cccc(Br)c1 (stereo unspecified)
→ 1%	3%
CCN(C(=O)COC(=O)CNS(=O)(=O)c1ccccc1)c1ccccc1
→ -5%	9%
CC(/C=N/NC(=O)Cc1cc(=O)[nH][nH]1)=C\c1ccccc1
→ -6%	-1%
CC(C)(C)c1cc(NC(=O)CSc2nnc(N)s2)n(-c2ccccc2)n1
→ 3%	-5%
C=CCn1c(C)cc(C(=O)CSc2n[nH]c(N)n2)c1C
→ -3%	-9%
Cc1cc(N2CCN(c3nnnn3-c3ccccc3)CC2)n2ncnc2n1
→ -3%	-3%

# Every second line gives: KAT2A inh	DT40 TDP1 CPT
CC(C)Cc1nc(SCC(=O)Nc2ccc(S(N)(=O)=O)cc2)n[nH]1
→ 0%	-6%
CCOc1ccc(N(CC(=O)Nc2ccccc2C)S(=O)(=O)c2c(C)noc2C)cc1
→ -7%	4.6µM*
Cc1[nH]c2ccccc2c(=O)c1CN1CCCCCC1
→ 5%	8%
CSc1ccc(CN2CCC(Oc3ccc(C(=O)N4CCCC4)cc3)CC2)cc1
→ -6%	-20%
COC(=O)CSc1nc(C)c(Oc2ccccc2)c(=O)[nH]1
→ -5%	1%
CC(C(=O)Nc1ccc(S(=O)(=O)N2CCCC2)cc1)N1CCCC(C(N)=O)C1 (stereo unspecified)
→ -1%	-5%
CC(=O)Nc1ccc(NC(=O)c2cnn(-c3ccccc3)c2C2CCN(C(=O)OC(C)(C)C)CC2)cc1
→ 1%	-23%
CC1CN(S(=O)(=O)c2cc(C(=O)N(CCc3ccccc3)Cc3ccccc3)ccc2Cl)CC(C)O1 (stereo unspecified)
→ -22%	12µM*
Cc1c(Cl)cccc1N1C(=O)CC(NNC(=O)c2cccs2)C1=O (stereo unspecified)
→ -3%	9%
Cc1ccc(S(=O)(=O)NNC(=O)c2cnn(-c3ccc(Cl)cc3)c2C(F)(F)F)cc1
→ -5%	0%
O=C(COC(=O)c1cncc(Br)c1)NCC12CC3CC(CC(C3)C1)C2
→ 1%	2%
CCC1CCCCN1C(=O)CCc1nnc(Cc2c[nH]c3ccccc23)o1 (stereo unspecified)
→ -8%	-23%
O=C(COc1ccccc1Cl)Nc1ccccc1C(=O)NC1CC1
→ -2%	23µM*
COc1ccccc1C1N=C(c2ccccc2C)NO1 (stereo unspecified)
→ -1%	-1%
FC(F)(F)c1ccc(Cl)c(NC(=S)NC2CC2)c1
→ -8%	11%

# Profiles from above.
# CC(=O)Nc1ccc(NC(=O)c2cnn(-c3ccccc3)c2C2CCN(C(=O)OC(C)(C)C)CC2)cc1 in the list: KAT2A inh: 1%; DT40 TDP1 CPT: -23%
# COc1ccccc1C1N=C(c2ccccc2C)NO1 (stereo unspecified) in the list: KAT2A inh: -1%; DT40 TDP1 CPT: -1%

# The listing continues:
# Every second line gives: KAT2A inh	DT40 TDP1 CPT
O=C(NCC(c1ccc2c(c1)OCO2)N1CCOCC1)C(=O)Nc1ccc(F)cc1F (stereo unspecified)
→ -1%	0%
CCOc1ccc(-c2ccc(NS(=O)(=O)c3cc(C)ccc3OC)cc2)nn1
→ -8%	13µM*
Cc1ccc(S(=O)c2ccc(C)cc2)cc1
→ 1%	-8%
O=C(Nc1ccccc1)c1ccc(=O)n(Cc2ccc(F)c(F)c2)c1
→ -5%	-17%
Cc1ccc(NC(=O)COC(=O)c2cccnc2Cl)cc1S(=O)(=O)N1CCCCC1
→ -18%	-17%
O=C(c1cccc(Oc2ccc([N+](=O)[O-])cc2Cl)c1)N1CCOCC1
→ -9%	-4%
COc1cccc(OC)c1-c1nn(-c2ncc(C(F)(F)F)cc2Cl)c(=O)o1
→ -4%	?
COc1cc(S(=O)(=O)NCCN2CCOCC2)c(OC)cc1Cl
→ 1%	-2%
COc1ccc(CNC(=O)COC(=O)c2cc3ccccc3cc2O)cc1OC
→ -2%	-11%
COc1cccc(-c2nn3c(=O)cc(CN4CCN(S(=O)(=O)c5ccc(C)cc5)CC4)nc3s2)c1
→ 13%	-1%
N#Cc1c(/N=C/N2CCCC2)oc(-c2ccccc2)c1-c1ccccc1
→ -9%	?
O=C(CCc1nnc(C2CCCCC2)o1)NCCCOc1cccnc1
→ -7%	17%
COc1ccccc1C(O)c1nccn1C (stereo unspecified)
→ -10%	3%&24%
CC(/C=C/C=C/c1ccccc1)=N/NC(=O)CNc1ccccc1C
→ -6%	10µM*
Cc1cnc(NC(=O)C2CC(=O)N(c3cccc(Cl)c3)C2)s1 (stereo unspecified)
→ -8%	7.3µM*

# Arranged by length of the SMILES (falling): 14 of the compounds above
# Every second line gives: KAT2A inh	DT40 TDP1 CPT
COc1cccc(-c2nn3c(=O)cc(CN4CCN(S(=O)(=O)c5ccc(C)cc5)CC4)nc3s2)c1
→ 13%	-1%
O=C(NCC(c1ccc2c(c1)OCO2)N1CCOCC1)C(=O)Nc1ccc(F)cc1F (stereo unspecified)
→ -1%	0%
COc1cccc(OC)c1-c1nn(-c2ncc(C(F)(F)F)cc2Cl)c(=O)o1
→ -4%	?
O=C(c1cccc(Oc2ccc([N+](=O)[O-])cc2Cl)c1)N1CCOCC1
→ -9%	-4%
CCOc1ccc(-c2ccc(NS(=O)(=O)c3cc(C)ccc3OC)cc2)nn1
→ -8%	13µM*
N#Cc1c(/N=C/N2CCCC2)oc(-c2ccccc2)c1-c1ccccc1
→ -9%	?
O=C(Nc1ccccc1)c1ccc(=O)n(Cc2ccc(F)c(F)c2)c1
→ -5%	-17%
Cc1cnc(NC(=O)C2CC(=O)N(c3cccc(Cl)c3)C2)s1 (stereo unspecified)
→ -8%	7.3µM*
COc1cc(S(=O)(=O)NCCN2CCOCC2)c(OC)cc1Cl
→ 1%	-2%
O=C(COc1ccccc1Cl)Nc1ccccc1C(=O)NC1CC1
→ -2%	23µM*
FC(F)(F)c1ccc(Cl)c(NC(=S)NC2CC2)c1
→ -8%	11%
COc1ccccc1C1N=C(c2ccccc2C)NO1 (stereo unspecified)
→ -1%	-1%
Cc1ccc(S(=O)c2ccc(C)cc2)cc1
→ 1%	-8%
COc1ccccc1C(O)c1nccn1C (stereo unspecified)
→ -10%	3%&24%

# Next structures:
# Every second line gives: KAT2A inh	DT40 TDP1 CPT
O=c1cc(Nc2ccc3c(c2)OCO3)[nH]c(=O)n1-c1ccc(Br)cc1
→ -1%	?
COc1ccc(N2CCN(C3CC(=O)N(c4ccc5c(c4)OCCO5)C3=O)CC2)cc1 (stereo unspecified)
→ 1%	-8%
CCS(=O)(=O)c1nc(S(=O)(=O)c2ccc(C)cc2)c(N2CCCC2)s1
→ 0%	-10%
COc1ccc(C(C)=O)cc1COC(=O)c1cnc(C)cn1
→ 1%	2%
Cc1ccccc1-c1ccc(CN2CCN(C)C(CCO)C2)cc1 (stereo unspecified)
→ 1%	?
O=C(NN1C(=O)c2ccccc2NC1c1cccnc1)c1ccccc1 (stereo unspecified)
→ 1%	-8%
COc1ccccc1NS(=O)(=O)c1ccc(C(=O)NCC(c2ccc(F)cc2)N2CCOCC2)cc1 (stereo unspecified)
→ -6%	?
C=CCN(c1ccccc1OC)S(=O)(=O)c1cccc(C(=O)NCc2cccs2)c1
→ -17%	15µM*
CC(C)CCC1(C)NC(=O)N(CC(=O)Nc2ccc3c(c2)OCCO3)C1=O (stereo unspecified)
→ -6%	-19%
O=C(Nc1ccc(Cl)cc1)N1CCSc2ccccc21
→ -15%	-18%
CN/S(=N/S(=O)(=O)c1ccccc1)c1ccc(C)cc1 (stereo unspecified)
→ 0%	0%
Cc1ccc2[nH]c3c(=O)n(CC(=O)Nc4ccc(Br)cc4C)ncc3c2c1
→ 22%	12%
COc1ccccc1NS(=O)(=O)c1ccc2oc(SCC(=O)N3CCNC3=O)nc2c1
→ 0%	3.7µM*
CCC(=O)Nc1ccc2c(c1)ncn2CCc1ccccc1
→ 0%	-11%
CCOC(=O)C1CCCN(c2c(N3CCN(c4cccc(Cl)c4)CC3)c(=O)c2=O)C1 (stereo unspecified)
→ -23%	-3%

# Every second line gives: KAT2A inh	DT40 TDP1 CPT
O=C(NCC(=O)N1CC(O)CC1C(=O)N1CC(O)CC1C(=O)OCc1ccccc1)OCc1ccccc1 (stereo unspecified)
→ -1%	6%
Cc1cc(C)c(C)c(S(=O)(=O)N2CCN(C(=O)c3ccncc3)CC2)c1C
→ 0%	?
CCN1CCN(C(=O)/C=C/c2ccccc2[N+](=O)[O-])CC1
→ -5%	1%
Cc1nc(SCC(=O)Nc2ccc(C)c(F)c2)c2oc3ccccc3c2n1
→ 1%	-20%
CCOc1ccc(CCNC(=O)Cc2ccc(S(=O)(=O)N3CCOCC3)s2)cc1OCC
→ 1%	-8%
O=S(=O)(NCCSc1ccc(Cl)cc1)c1ccc(F)cc1
→ -7%	-16%
O=C1CC(N2CCc3ccccc32)C(=O)N1c1ccccc1 (stereo unspecified)
→ -8%	12%
Nc1c(Cl)c(Cl)nc(C(=O)OCC(=O)NC2CCCCC2)c1Cl
→ -25%	1%
